CSC inhib – cancer stem cell inhibition; cancer stem cell-like cells viability, luminescence; inhibition, % at 7.5 µM; hit rate 1.1% among 300,000;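 active = mean at 75% or more and at least half the replicates too; inconclusive = mean and replicates disagree; tested in HMLE shEcad cells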;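 also: 0% = median of negative and 100% = median of positive control wells; the first replicate is given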
MT1-MMP act inh – MT1-MMP (human) activation inhibition | GFP/RFP ratio change, % at 20 µM | AID 651647 | HT1080 RFP-PRO-GFP cells, GFP/RFP ratio fluorescence, overnight; percent of plate control window, DMSO zero | hit rate 0.061% among 360,000;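 active = GFP/RFP ratio change of at least 30% with cell ATP level not reduced by more than half and red fluorescence within 50% of control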; also: strong numbers were not always called active
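Test system: HT1080 RFP-PRO-GFP cells; Benchmarks: DMSO and RFP-L50D-GFP cell wells; Timing: cells overnight before dosing, compound overnight, 37 °C, 5% CO2; Compound: one 20 µM compound dose with 1% DMSO; Read-out: GFP/RFP fluorescence ratio.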
Rce1 inh – yeast Ras-converting enzyme inhibition; Q03530; yeast membranes, quenched prenylated peptide cleavage fluorescence; calls only; hit rate 0.27% among 290,000; AID 2563;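 active = fall in fluorescence gain of 50% or more versus controls, with final raw signal at or below 3038400; inconclusive = same 50% fall but final raw signal above 3038400; inactive = fall in fluorescence gain under 50%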;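 also: plate controls were neutral control wells for no effect and wells lacking membranes for full effect; tested at 10 µM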
Target sequence (Q03530 whole entry, looked up): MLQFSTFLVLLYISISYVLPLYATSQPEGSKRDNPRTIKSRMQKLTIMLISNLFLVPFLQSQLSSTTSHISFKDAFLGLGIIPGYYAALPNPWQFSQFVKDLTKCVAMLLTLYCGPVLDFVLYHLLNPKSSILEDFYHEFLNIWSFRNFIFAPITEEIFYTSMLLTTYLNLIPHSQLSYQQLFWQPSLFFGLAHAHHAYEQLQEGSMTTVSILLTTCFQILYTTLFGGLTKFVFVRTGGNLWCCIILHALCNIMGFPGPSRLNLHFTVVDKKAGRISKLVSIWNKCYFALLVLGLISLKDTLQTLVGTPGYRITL
eIF4H inh – inhibitors of RNA binding by human eIF4H; hit rate 0.94% among 290,000; eIF4H fluorescence polarization binding assay; Q15056; inhibition, % at 35 µM;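 active = 50% or more with normal probe brightness, or confirmed in later tests; inconclusive = above 50% with abnormal brightness, or retests that disagree; inactive = below 50% or failed in later tests; about a fifth of its hits are not listed in these tables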;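 also: calls also rest on retests at 20 µM and on dose response follow-up; 0% = protein and probe with vehicle and 100% = probe without protein; strong numbers were not always called active; many hits fall short of the cut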
UUG fidelity – yeast start codon fidelity modulation; S. cerevisiae UUG-firefly luciferase reporter, luminescence/redox ratio; activity score, % at 18.7 µM; hit rate 0.13% among 350,000; AID 602363;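 active = replicate mean at a twofold rise or more, about +100% in these data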;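 also: firefly luciferase made from a UUG start codon reports start codon fidelity; reporter light over untreated wells divided by growth signal over untreated wells; some hits fall short of that in this replicate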
HIV Env fusion – blocks HIV Env-driven cell-cell fusion; hit rate 1.1% among 360,000; HeLa-JRFL Env/CEM21 cell fusion, luciferase; inhibition, % at 12.3 µM; AID 651610;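 active = mean replicate inhibition score of at least 50 and every replicate individually at or above 50; inconclusive = only one of the two criteria met; inactive = mean below 50 and not all replicates reaching 50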;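 also: 0% = plate neutral controls and 100% = maraviroc near 300 nM; one replicate is shown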
PABP polyA inh – blocks human PABP binding to poly(A) RNA; inhibition, % at 35 µM; fluorescence polarization; hit rate 1% among 290,000;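 active = 50% or more with normal probe brightness, or confirmed in later tests; inconclusive = above 50% with abnormal brightness, or retests that disagree; inactive = below 50% or failed in later tests; about a fifth of its hits are not listed in these tables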;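 also: calls also rest on retests at 20 µM and on dose response follow-up; controls were probe without protein and protein plus probe with vehicle; some compounds called inactive have numbers as strong as hits; many hits fall short of the cut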
Target sequence (P11940 whole entry, looked up): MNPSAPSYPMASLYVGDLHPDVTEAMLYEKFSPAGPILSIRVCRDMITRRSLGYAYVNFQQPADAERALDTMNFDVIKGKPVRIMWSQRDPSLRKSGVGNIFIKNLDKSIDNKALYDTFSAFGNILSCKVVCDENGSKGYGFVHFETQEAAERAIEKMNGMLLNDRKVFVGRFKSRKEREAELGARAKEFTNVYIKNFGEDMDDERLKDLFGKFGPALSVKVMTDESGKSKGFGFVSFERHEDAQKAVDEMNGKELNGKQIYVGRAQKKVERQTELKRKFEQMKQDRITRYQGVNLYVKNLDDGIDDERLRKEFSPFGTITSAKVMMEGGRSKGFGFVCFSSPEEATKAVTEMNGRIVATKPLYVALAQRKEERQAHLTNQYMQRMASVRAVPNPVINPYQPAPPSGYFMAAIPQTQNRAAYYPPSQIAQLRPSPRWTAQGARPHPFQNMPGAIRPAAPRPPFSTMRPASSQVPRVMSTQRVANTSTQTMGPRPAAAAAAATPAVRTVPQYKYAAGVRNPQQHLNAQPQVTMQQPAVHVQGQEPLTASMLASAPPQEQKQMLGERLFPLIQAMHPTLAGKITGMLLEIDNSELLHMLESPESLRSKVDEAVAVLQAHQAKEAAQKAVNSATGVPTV
eIF4H inh retest – also measured in eIF4H inh; calls as there; inhibition, %; compound at 20 µM; confirmation average;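 mean of two retest wells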
PABP polyA inh retest – second read-out of PABP polyA inh, no call of its own (marks repeat the call); inhibition, %; compound at 20 µM; confirmation repeats;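 mean of two retest wells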
MT1-MMP act inh RFP – further read-out of MT1-MMP act inh, marked with its call; RFP signal change, %; measured here: RFP expression control read;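 0 = vehicle wells; hits needed this value within 50% of zero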
The depositor's hits bear a star; i = inactive; ? = inconclusive; nt = not tested or not shown.

SMILES	CSC inhib	MT1-MMP act inh	MT1-MMP act inh RFP	Rce1 inh	eIF4H inh	UUG fidelity	HIV Env fusion	PABP polyA inh	others
O=C(Nc1ccccc1NC(=O)c1ccco1)c1ccccc1	-8	1	0	i	-4	-11	-1	6
CCN1CCN(C(=O)CCc2nnc(CCc3ccccc3OC)o2)[C@@H](C)C1=O	-2	-1	3	i	-4	-2	-16	-7
CCCCN(C)C1=Nc2cccc3cccc1c23	-11	-7	2	i	13	12	-58	61	eIF4H inh retest=-1;PABP polyA inh retest=1
O=C1CSC(=S)N1c1cccc(Cl)c1	20	nt	nt	i	-2	-17	9	9
O=C(NC12CC3CC(CC(C3)C1)C2)c1cc([N+](=O)[O-])ccc1N1CCOCC1	19	0	0	i	-5	nt	41	-8
Cc1c(Cl)c([N+](=O)[O-])nn1CCCC(=O)N(Cc1ccccc1)Cc1ccccc1	0	-9	-13	i	4	nt	17	62	eIF4H inh retest=0;PABP polyA inh retest=8
COc1nc(N(CC(N)=O)S(=O)(=O)c2ccccc2)nc(C)c1Cl	-13	-4	0	i	-12	-10	nt	-5
Cc1ccc(OCC(O)CN2CCN(Cc3ccc4c(c3)OCO4)CC2)cc1C (stereo unspecified)	25	-9	0	i	1	0	21	-11
C[C@H](CO)N1C[C@H](C)[C@@H](CN(C)Cc2ccc3c(c2)OCO3)Oc2c(NC(=O)Cc3ccccc3)cccc2C1=O	nt	-5	-6	nt	nt	-9	-90	nt
Brc1cccc(OCCCCn2cncn2)c1	-5	1	-6	i	12	-23	11	31
COc1ccccc1-c1cc(C(=O)NC2CCN(C)CC2)c2ccc(Cl)c(C)c2n1	108*	-2	1	i	-6	-3	-10	1
Cc1ccn2c(-c3csc(Nc4ccc(C(=O)O)cc4)n3)c(C)nc2c1	nt	0	1	nt	nt	-25	17	nt
CN(C)c1cc(-c2ccc(F)cc2)oc(=O)c1Cl	0	-2	-3	i	-6	-17	6	-3
CCOc1cc(C2C3=C(CCCC3=O)Nc3nc(C(=O)OC)nn32)ccc1OC (stereo unspecified)	5	5	10	i	0	nt	-25	-4
Cc1nn(C2CCS(=O)(=O)C2)c(Cl)c1/C=C/C(=O)OCC(=O)c1c[nH]c2ccccc12 (stereo unspecified)	-2	-1	-12	i	-8	nt	36	4
COC(=O)c1ccc(N2C(=O)CC(N3CCN(c4ccccc4)CC3)C2=O)cc1 (stereo unspecified)	-1	1	5	i	nt	-8	nt	nt
Cc1cc(C)n2nc(SCCCC(=O)c3ccccc3)nc2n1	-6	-12	-3	i	2	nt	-6	0
COc1cccc(/C=C/c2onc(C)c2S(=O)(=O)N2CCC(C(=O)NC3CCCCCC3)CC2)c1	13	-2	-1	i	-11	-15	-2	4
Cc1onc(-c2ccccc2Cl)c1C(=O)Nc1ccccc1C(=O)NC(C)C	12	-5	-12	i	0	-8	nt	2
Cc1cccc(NS(=O)(=O)c2ccc(-c3cnc(C4CC4)o3)cc2)c1	-8	-13	-23	i	-2	5	-2	4
COc1cccc(CN2CCN(C(=O)CCc3nnc(C4CCCCC4)o3)CC2=O)c1	-2	1	1	i	5	-21	6	4
Cc1ccc(S(=O)(=O)Cc2ccc([N+](=O)[O-])cc2)cc1	-3	0	-2	i	98*	-19	4	75*
Cc1[nH]n(-c2ccccc2)c(=O)c1N=Nc1ccccc1O	nt	7	17	i	12	nt	26	9
Cn1c(-c2ccc(F)cc2)cnc1SCC(=O)Nc1ccccc1	-11	-1	-9	i	-1	nt	30	8
COC(=O)c1ccc(CSc2nnc(NC(=O)C3CC(=O)N(Cc4ccc(C)cc4)C3)s2)cc1 (stereo unspecified)	-20	1	2	i	-4	-6	16	-8
Going on with the list.
SMILES	CSC inhib	MT1-MMP act inh	MT1-MMP act inh RFP	Rce1 inh	eIF4H inh	UUG fidelity	HIV Env fusion	PABP polyA inh	others
COc1ccc(C(CC(=O)O)NC(=O)OC(C)(C)C)cc1 (stereo unspecified)	-14	-5	-11	i	4	-12	i	-3
Cc1ccc(C(=O)Nc2sc3c(c2C(=O)O)CCCC3)o1	6	-7	-4	i	1	-18	16	-1
COc1cccc(/C=N/NC(=O)CC2C(=O)NN=C2C)c1OC (stereo unspecified)	-13	1	-3	i	-5	-10	-10	0
Cc1ccc(NC(=O)c2cc(C)nn2-c2ccccc2)cc1	1	-2	-3	i	-2	-16	-8	6
Cc1cc(C)[n+](Cc2ccccc2)cc1C(N)=O	6	-3	2	i	nt	nt	17	nt
Cc1ccccc1C(=O)N[C@H](C(=O)OCC(=O)c1ccc[nH]1)C(C)C	3	3	7	i	-4	-12	12	-6
COc1ccc(NC(=O)CN(C)C(=O)C2CC(=O)N(CCc3ccc(OC)c(OC)c3)C2)cc1 (stereo unspecified)	nt	-3	-1	nt	nt	-9	2	nt
O=C(O)C1CC=CCC1C(=O)NCCc1csc(-c2ccccc2)n1 (stereo unspecified)	-2	4	1	i	-5	12	1	-1
COC(=O)C1=CN(Cc2ccc(OC)c(OC)c2)C=C(C(=O)OC)C1c1cccc(O)c1	-13	-4	-3	nt	13	-13	-5	-9
COc1cc(OC)c2c(OC)cccc2n1	3	11	7	i	-2	-10	-22	-9
O=C(Nc1ncc(Cl)cn1)c1cccs1	13	-1	2	i	12	-12	nt	2
COc1ccc2c(c1)c(CC(=O)OC(C)C(=O)N(C)C)c(C)n2C(=O)c1ccc(Cl)cc1 (stereo unspecified)	0	0	-6	i	10	0	34	0
CCCN1C(=O)CC(c2ccco2)Sc2ccccc21 (stereo unspecified)	-17	-6	-1	i	-2	4	nt	7
CC(=O)NC(CCS(C)(=O)=O)C(=O)Nc1ccccc1Cl (stereo unspecified)	-5	0	6	i	-9	-10	nt	-3
Nn1c(SCC(=O)Nc2ccccc2F)nc2ccccc2c1=O	-4	2	-4	i	-8	nt	-1	4
COCCNC(=O)CSc1ccc(-c2nc3ccccc3[nH]2)cn1	-1	8	3	i	-4	-17	-3	-1
CCOc1cccc(-c2c(C(=O)N/N=C/c3ccc(C)s3)nnn2-c2nonc2N)c1	-10	1	2	i	-15	-24	5	-4
O=C(CN1CCCC1c1cccs1)Nc1cccc(S(=O)(=O)N2CCCC2)c1 (stereo unspecified)	-13	2	-8	nt	nt	-9	nt	nt
Cc1cccc(C(=O)NCC(=O)OCC(=O)NC2CCCCC2)c1	-1	6	0	nt	nt	-3	-1	nt
Cc1cc([N+](=O)[O-])nn1Cc1c(F)c(F)c(F)c(F)c1F	-13	-2	0	i	3	-2	-3	-18
Cc1cc(-c2ccc(S(=O)(=O)N(C)c3ccc(C)c(C)c3)s2)on1	71	-12	-17	i	20	-5	16	-1
CC(C)NC[C@@H](O)c1ccc(O)c(O)c1	1	1	3	i	32	-12	13	1
COc1cccc(OCCCOc2ccc([N+](=O)[O-])cc2Cl)c1	18	-1	2	i	-9	-17	nt	-12
O=[N+]([O-])c1cccc(-c2nc3ccc([N+](=O)[O-])cc3[nH]2)c1	28	0	-17	i	9	nt	-37	-8
Cc1cc(NC(=O)CCc2ccc(S(=O)(=O)N3CCOCC3)cc2)n(-c2ccccc2)n1	1	2	-11	i	1	-4	nt	-4

Five records picked at random from those above:
SMILES	CSC inhib	MT1-MMP act inh	MT1-MMP act inh RFP	Rce1 inh	eIF4H inh	UUG fidelity	HIV Env fusion	PABP polyA inh	others
COC(=O)C1=CN(Cc2ccc(OC)c(OC)c2)C=C(C(=O)OC)C1c1cccc(O)c1	-13	-4	-3	nt	13	-13	-5	-9
COc1cc(OC)c2c(OC)cccc2n1	3	11	7	i	-2	-10	-22	-9
Cc1ccc(C(=O)Nc2sc3c(c2C(=O)O)CCCC3)o1	6	-7	-4	i	1	-18	16	-1
Cc1cccc(C(=O)NCC(=O)OCC(=O)NC2CCCCC2)c1	-1	6	0	nt	nt	-3	-1	nt
COCCNC(=O)CSc1ccc(-c2nc3ccccc3[nH]2)cn1	-1	8	3	i	-4	-17	-3	-1

Other results.
SMILES	CSC inhib	MT1-MMP act inh	MT1-MMP act inh RFP	Rce1 inh	eIF4H inh	UUG fidelity	HIV Env fusion	PABP polyA inh	others
CCCCN(C)C(=O)Cn1ncc2c3ccccc3n(CCC)c2c1=O	1	-1	-2	i	-21	-6	-8	2
CCOc1ccc(NC(=O)N(C2CCCCC2)C(C)c2cccnc2)cc1 (stereo unspecified)	12	0	3	i	-3	-11	-7	-2
CC1CCC(C(C)C)C(OCC(O)CN2CCCC(C)C2)C1 (stereo unspecified)	35	2	-2	i	-2	nt	14	10
COC(=O)c1cc(NC(=O)c2cccc(F)c2)cc(C(=O)OC)c1	12	-1	-3	i	-7	-16	0	-4
CC(=O)N1c2ccc(S(=O)(=O)NCCC(=O)NC3CCCCCC3)cc2CC1C (stereo unspecified)	-4	4	-2	i	-2	-5	6	1
CCS(=O)(=O)c1ccc(O)c(NC(=O)CC2(CC(=O)O)CCCC2)c1	-19	1	3	i	-5	-7	5	3
O=C(CN1CCN(Cc2ccccc2Cl)C1=O)NCC1CCCO1 (stereo unspecified)	-1	-1	-1	i	2	-16	12	1
Cc1c(CCC(=O)O)c(=O)oc2cc3occ(C(C)(C)C)c3cc12	0	4	3	i	2	nt	16	1
CCCCCOc1ccc(C(=O)CCC(=O)N2CCCC2)cc1	13	9	0	i	4	-6	4	-5
CCOC(=O)/C(=C/C1=CC(=C/N(C)C)/C(=O)O1)C(C)=O	-4	-61	2	i	?	5	-3	?
Cc1ccc(-c2nc(CS(=O)(=O)CC(=O)Nc3cc(F)ccc3F)c(C)o2)cc1	nt	-2	-8	i	-3	4	9	-6
O=c1nc2n(c3cccc(Cl)c13)CCCCC2	-5	-4	1	i	-7	nt	17	-10
CCCCNC(=O)Cc1coc2ccc3ccccc3c12	4	-4	-5	i	-8	-4	19	-5
CCn1c(NC(=O)/C=C/c2ccc(F)cc2)nc2ccccc21	20	-3	-13	i	-7	-36	3	1
CCOC(=O)C1=C(C)N(CCO)C(=O)NC1c1cccc(O)c1 (stereo unspecified)	-16	2	4	i	3	-10	nt	3
Cc1cc(N2CCN(c3ccccc3)CC2)n2ncnc2n1	-2	6	-4	i	4	nt	-17	-3
O=C(N/N=C/c1ccccc1[N+](=O)[O-])c1cccs1	-6	-3	-1	i	-1	-16	-27	-2
COc1ccc(C(CNC(=O)c2cc(=O)[nH]c3ccccc23)N2CCCC2)cc1 (stereo unspecified)	-1	-6	-2	i	1	-12	-35	4
O=C(Cn1nc2sc3ccccc3n2c(=O)c1=O)c1cccs1	8	-1	3	i	0	-4	13	7
O=C1NC(=O)/C(=C\c2ccc(Oc3cnccn3)cc2)S1	-1	4	0	i	11	nt	-23	-5
Cc1ccc(NC(=O)c2ccc(OCc3c(C)noc3C)cc2)cc1	3	nt	nt	i	-4	nt	6	-5
COc1ccc(OC)c(NC(=O)CN2CCc3ccccc3C2)c1	-4	1	2	i	95	-4	8	4	eIF4H inh retest=0;PABP polyA inh retest=-8
Brc1ccc(OCc2nnnn2-c2ccccc2)cc1	17	2	5	i	1	nt	13	2
CCOC(=O)N1CCN(C(=O)C(CC)c2ccccc2)CC1 (stereo unspecified)	-3	-4	-3	i	-6	-12	20	-4
C=CCN1c2ccccc2[C@]23C[C@@H](C(=O)OC)N(C(=O)c4ccco4)C2=NC(C(=O)OC)=C(C(=O)OC)[C@H]13	2	-3	3	i	-12	-2	-14	6
CCNC(=S)NNC(=O)c1ccoc1C	-1	-1	-1	i	-11	-19	14	-3
Cc1c(Br)c([N+](=O)[O-])nn1CC(=O)NCc1cccnc1	-12	3	10	i	2	-14	nt	40
O=C(NCCO)c1cccc(S(=O)(=O)N2CCCCC2)c1	-12	7	0	i	-6	-4	3	-9

From PubChem BioAssay
